BmaI1 enzyme = BmaI1 acyl-homoserine lactone synthase inhibition – biochemical, fluorescence intensity, with counterscreen (AID 720554); BmaI1 enzyme assay, fluorescence intensity; stronger effect = higher value; test concentration not given here; a few actives read low; strong numbers were not always called active; inhibition, %; hit rate 0.4% among 12,000;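 active means both replicates within 2 robust z-scores of the inhibited control and a quiet counterscreen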;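 further: 0% = uninhibited enzyme and 100% = inhibited control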
BmaI1 enzyme counterscreen = also measured in BmaI1 enzyme; calls as there; inhibition, %; measured here: counterscreen; design of the counterscreen not given here;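 first of two replicates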
The depositor's hits bear a star. These rows are one share of the data. The share of hits here may be higher or lower than overall.

SMILES	BmaI1 enzyme	BmaI1 enzyme counterscreen
CC(C)CCC1(C)NC(=O)N(Cc2ccc(C#N)cc2)C1=O (configuration not stated)	3.5	0.5
COc1cccc(NCc2nnc(SCc3nnc(-c4cc(C)oc4C)o3)n2C2CCCCC2)c1	5.5	-10.0
CC(C)(C)NC(=O)Nc1ccc(S(=O)(=O)N2CCCC2)cc1	29.5	1.5
COc1ccc(CN(C)CC(=O)NC(C)c2ccccc2)c(OC)c1 (configuration not stated)	4.0	1.0
CC(=O)NCCC(=O)N1C(=NCCc2ccccc2)SCC1(C)C	-9.5	-6.5
CC(Nc1ncnc2c1oc1ccccc12)C12CC3CC(CC(C3)C1)C2 (configuration not stated)	13.5	11.5
Cc1cc(C(=O)CSc2nnc(N)s2)c(C)n1Cc1cccs1	7.0	7.0
Cc1nnc(SCC2=C(C(=O)O)N3C(=O)C(NC(=O)Cn4cnnn4)C3SC2)s1 (configuration not stated)	-4.0	0.5
O=C(CN1C(=O)COc2ccccc21)Nc1ccc(S(=O)(=O)Nc2ncccn2)cc1	4.0	4.0
Cc1noc(C)c1COC(=O)CCc1ccc(S(=O)(=O)N2CCCCC2)cc1	6.5	4.5
C=CCN(CC=C)Cc1nc(N)nc(Nc2ccccc2C)n1	3.0	3.0
Cc1cc(-n2c(C)cc(C(=O)CN3C(=O)NC4(CCCCCC4)C3=O)c2C)no1	13.0	1.5
O=c1c(Cl)c(Cl)cnn1-c1nc2ccccc2[nH]1	22.0	14.5
CCCCN=C1SCC(c2cc(C)n(Cc3ccco3)c2C)=NN1C	10.0	3.0
C=CCn1c(C)cc(C(=O)Cn2c(C(C)O)nc3ccccc32)c1C (configuration not stated)	6.5	4.5
CCCCNc1nc2ccccc2[nH]1	5.5	18.5
CN(Cc1cccs1)CC(O)COCc1ccco1 (configuration not stated)	1.0	3.0
CC(=O)NC12CC3CC(C1)CC(C(=O)OC(C)C(=O)Nc1ccccc1C#N)(C3)C2 (configuration not stated)	6.0	0.5
CNCCCC12CCC(c3ccccc31)c1ccccc12	9.5	9.0
CC(=O)N1CCc2cc(-c3csc(N)n3)ccc21	44.5	49.5
Nc1nnc(SCC(=O)OCC(=O)Nc2nc(-c3ccccc3)cs2)s1	19.0	9.0
CN1C(=O)c2cccc3c(Cl)cc(Cl)c1c23	6.5	4.5
CN(C)S(=O)(=O)c1ccc(C(=O)Oc2ccc(-n3ccnc3)cc2)cc1	11.5	7.5
Cc1ccc(NCc2nc3ccccc3s2)cc1	34.5	8.5
O=C(O)Cc1csc(-c2ccsc2)n1	-1.0	3.5
CC(C)C(=O)Nc1ccc(-c2csc(N)n2)cc1	36.0	67.0
O=C(c1ccc(NS(=O)(=O)c2ccc3[nH]c(=O)[nH]c3c2)cc1)N1CCN(c2ccc(F)cc2)CC1	12.5	6.5
O=C(Cn1c(=O)cnc2ccccc21)NCCc1ccccc1	-3.5	-3.5
CCSC1=NN2CCS(=O)(=O)N=C2S1	5.0	-0.5
N#Cc1cccc(C(=O)NCCc2ccc3c(c2)OCCO3)c1	14.5	11.5
O=C(CSc1nccn1Cc1ccccc1)N1CCN(C(=O)c2cccs2)CC1	18.5	0.5
CC1CCCCN1C(=O)c1cccc(C#N)c1 (configuration not stated)	5.5	1.5
O=C1COc2ccccc2N1CC(=O)N(CC1CCCO1)C1CCS(=O)(=O)C1 (configuration not stated)	13.0	6.5
CC(C#N)(NC(=O)CN1CCN(S(=O)(=O)c2ccccc2Cl)CC1)C1CC1 (configuration not stated)	7.0	0.0
CCC(C)NC(C)C(=O)Nc1ccc(Cl)cc1Cl (configuration not stated)	6.0	-1.5

Reformatted bar-delimited: 5 of the compounds above
SMILES | BmaI1 enzyme | BmaI1 enzyme counterscreen
O=C1COc2ccccc2N1CC(=O)N(CC1CCCO1)C1CCS(=O)(=O)C1 (configuration not stated) | 13.0 | 6.5
O=C(CSc1nccn1Cc1ccccc1)N1CCN(C(=O)c2cccs2)CC1 | 18.5 | 0.5
CC1CCCCN1C(=O)c1cccc(C#N)c1 (configuration not stated) | 5.5 | 1.5
CCC(C)NC(C)C(=O)Nc1ccc(Cl)cc1Cl (configuration not stated) | 6.0 | -1.5
CC(C#N)(NC(=O)CN1CCN(S(=O)(=O)c2ccccc2Cl)CC1)C1CC1 (configuration not stated) | 7.0 | 0.0

Whole records, quoted from the list. Order of screens: BmaI1 enzyme, BmaI1 enzyme counterscreen
O=C(CSc1nccn1Cc1ccccc1)N1CCN(C(=O)c2cccs2)CC1 as listed: 18.5, 0.5
CCC(C)NC(C)C(=O)Nc1ccc(Cl)cc1Cl (configuration not stated) as listed: 6.0, -1.5
CC1CCCCN1C(=O)c1cccc(C#N)c1 (configuration not stated) as listed: 5.5, 1.5
O=C1COc2ccccc2N1CC(=O)N(CC1CCCO1)C1CCS(=O)(=O)C1 (configuration not stated) as listed: 13.0, 6.5
